VDR inhibitor = blocks the human vitamin D receptor; P11473; VDR-SRC2-3 peptide fluorescence polarization, 2 h; Potency, µM, for the others: max response, negative = inhibition, actives largely listed as inhibitors; actives 0.93% (n = 400,000); AID 504847; active = well fitted inhibition curve with a large enough effect; inconclusive = small, poorly fitted or top-dose-only effect, or another doubt; inactive = no such curve, though single readings can be large or run the other way; also: series mostly up to about 120 µM
Target sequence (P11473 whole entry, looked up): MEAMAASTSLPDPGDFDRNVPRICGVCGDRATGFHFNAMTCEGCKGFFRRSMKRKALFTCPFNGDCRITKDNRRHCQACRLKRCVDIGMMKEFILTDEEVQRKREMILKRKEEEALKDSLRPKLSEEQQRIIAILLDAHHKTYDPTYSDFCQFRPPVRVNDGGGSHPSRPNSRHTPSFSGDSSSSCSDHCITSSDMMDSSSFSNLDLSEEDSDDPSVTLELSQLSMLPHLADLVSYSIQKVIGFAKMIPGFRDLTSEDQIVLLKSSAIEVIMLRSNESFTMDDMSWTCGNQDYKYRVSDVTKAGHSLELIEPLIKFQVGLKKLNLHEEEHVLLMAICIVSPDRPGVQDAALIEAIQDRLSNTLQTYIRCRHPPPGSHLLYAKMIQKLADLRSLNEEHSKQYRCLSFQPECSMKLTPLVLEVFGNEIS
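Reagent solutions, kept cold and dark, are dispensed first; compounds are then pinned in at 23 nl, plates briefly spun, and incubated 2 h at ambient temperature. Inhibition of VDR–SRC2-3 peptide binding is read by fluorescence polarization.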
* marks the source's active call; other numbers are inactive results; u = inconclusive. % is scaled to controls: 0 for no effect and ±100 for the full control effect; potency is read from the fitted curve at half-maximal effect. Some of the compounds tested, so the mix of outcomes need not match the whole.

compound,VDR inhibitor
Cc1cc(C(C)(C)C)nc2[nH]n(-c3ccccc3)c(=O)c12,15.6%
COc1ccc(CCNC(=O)c2ccc(Cl)cc2)cc1,-13.6%
COC1CCCN(C(=O)c2ccc3oc(Cc4ccc(Cl)cc4)nc3c2)C1 (configuration not stated),-22.6%
COc1ccc(C(=O)Cn2c(=O)c(-c3cc(C)ccc3NC(C)=O)nc3ccccc32)cc1,-8.0%
Cc1cc(-c2nnc(CCC(=O)NC(C)c3cccc4ccccc34)o2)no1 (configuration not stated),-5.5%
COc1cc2c(cc1OC)C(COc1ccc(F)cc1)N(C(=O)c1ccc(S(=O)(=O)N3CCCC3)cc1)CC2 (configuration not stated),6.5%
CCC1CCCCN1C(=O)CSc1nc2c([nH]c3ccccc32)c(=O)n1-c1cccc(OC)c1 (configuration not stated),0.0%
COc1ccc(CCNC(=O)c2cc(C3CC3)nc3c2cnn3C(C)C)cc1,-3.6%
CC(C)(C)c1ccccc1N=Cc1ccc2ccccc2n1,-14.8%
COc1ccc(S(=O)(=O)Cc2ccc(C(=O)N3CCN(c4ncccn4)CC3)o2)cc1,-12.7%
Cc1cccc(C(C(=O)NC2CCCC2)N(Cc2cccnc2)C(=O)c2csnn2)c1 (configuration not stated),9.0%
OCCOCCn1c(CCNc2nc(-c3ccc(Cl)cc3)cs2)nc2cc(Cl)c(Cl)cc21,-13.0%
CC1(C)C(=S)N(Cc2ccccc2)c2ccccc21,-14.9%
CCOc1ccc(C(=O)OCC(=O)Nc2ccc(SC(F)F)cc2)cc1OCC,2.4%
COc1ccc(OCC(=O)Nc2ccc3c(c2)nc(CN2CCN(C(C)=O)CC2)n3C)cc1,-22.3%
COc1ccc(C2OC(=O)CC2C(=O)NCc2ccc(C)cc2)cc1OC (configuration not stated),-7.7%
Cc1ccc(-c2nc3c(c(SCC(=O)N4CCOCC4)n2)Cc2c(CO)cnc(C)c2O3)cc1,-26.5%
CCOC(=O)C1CCN(C(=O)c2ccccc2NC(=O)C2=C(C)OCCS2)CC1,-0.6%
Cc1cccc(OCc2nnc(SCC(=O)N3CCN(c4ccccc4)CC3)o2)c1C,-7.6%
COc1ccccc1N1CCN(CCCCN2C(=O)C3CCCN3C2=O)CC1 (configuration not stated),7.0%
NC(=O)CCC1NC(=O)C(Cc2ccccc2)NC(=O)C(Cc2ccc(O)cc2)NC(=O)CCSSCC(C(=O)N2CCCC2C(=O)NC(CCCN=C(N)N)C(=O)NCC(N)=O)NC(=O)C(CC(N)=O)NC1=O (configuration not stated),-16.4%
COc1c(S(=O)(=O)N2CCCC2)ccc(Cl)c1Cl,-8.7%
CCOc1ccc(NC(=S)NN(C)C(=S)Nc2ccc(OCC)cc2)cc1,-2.3%
Cc1ccccc1COn1nnc2ccc(S(=O)(=O)N3CCOCC3)cc21,-7.1%
Cc1ccc2nsnc2c1S(=O)(=O)N1CCCC1,-14.0%
CCOC(=O)C1(CC2CCCCO2)CCN(S(=O)(=O)c2ccc(OC)cc2)CC1 (configuration not stated),u
CCCC[C@@H]1C[C@H]1[C@@H](NC(=O)c1ccccc1)c1ccccc1C(F)(F)F,0.7%
Cc1c(C(=O)NCCCN2CCCC2=O)oc2ccc(S(=O)(=O)N3CCOCC3)cc12,-7.0%
CCCn1c(=O)c2sccc2n2c(CCCC(=O)N3CCN(c4cccc(C)c4C)CC3)nnc12,4.1%
Cc1noc(C)c1C(=O)Nc1nc(-c2ccccc2Cl)cs1,-5.6%
CCc1nc(N)c(C#N)c(-c2cccn2C)c1C,-16.8%
CCOC(=O)CNC(=O)C1CCCc2c1[nH]c1ccc(Cl)cc21 (configuration not stated),10.6%
Cc1cccc[n+]1CC(=O)Nc1ccccc1,-0.4%
COc1ccccc1S(=O)(=O)NCc1ccc(C(=O)N(C)Cc2ccc(F)cc2)cc1,6.7%
CCCn1c(SC(C(=O)Nc2cc(C)ccc2OC)c2ccccc2)nc2ccccc2c1=O (configuration not stated),-8.5%
CCOc1ccc(/C=C/C(=O)N(C)CC(=O)Nc2cccc(F)c2)cc1OCC,-0.5%
CCCC(c1nnnn1C1CCCCC1)N1CCN(C(=O)c2ccco2)CC1 (configuration not stated),-16.3%
O=C(CN1C(=O)C2(OCCO2)c2cc(Br)ccc21)NO,-20.5%
CC(C)c1ccc(S(=O)(=O)c2cnc(SCC(=O)Nc3ccc(F)cc3F)nc2N)cc1,5.9%
CN1CCN(C(=O)N(c2ccccc2)c2ccccc2)CC1,-0.1%
CCOC(=O)C1=C2N(C)c3ccccc3N2CCC1=O,-3.4%
Cc1[nH]c2ccc3ccccc3c2c(=O)c1C/C=C/Cl,-18.1%
NS(=O)(=O)c1ccc(CNC(=O)COc2ccc3c4c(c(=O)oc3c2)CCCC4)cc1,-23.3%
N#Cc1ccc(-c2ccc(C3Nc4ccccc4C(=O)N3O)o2)cc1 (configuration not stated),u
CC(C)C[C@H](NC(=O)OC(C)(C)C)C(=O)N/N=C/c1ccc2nccnc2c1,3.5%
O=C(c1cc(C(F)(F)F)cc(C(F)(F)F)c1)N1CCC[C@@]2(CCN(Cc3ccccc3)C2)C1,u
CC(=O)Nc1ccc(N(C(=O)CNC(=O)c2cccs2)C(C(=O)NCC2CCCO2)c2ccccc2)cc1 (configuration not stated),-20.0%
COc1ccc(CNC(=O)Cn2c(=O)c3cccn3c3ccccc32)cc1,-4.8%
CCCCc1ccc(Nc2ncnc3c2cnn3-c2ccc(C)cc2)cc1,3.5%
COc1ccc(CCC(=O)O)cc1OC,15.0%
Cc1cc(C)n(-c2nc(NCCN(C)C)c3c4c(sc3n2)COC(C)(C)C4)n1,-5.5%
O=C(CSc1cn(CC(=O)N2CCOCC2)c2ccccc12)Nc1ccccc1C(F)(F)F,15.0%
O=C(CSc1nc2nc(-c3cccs3)cc(C(F)(F)F)c2c(=O)[nH]1)NCc1ccco1,6.8%
CCc1ccc(OCC(=O)NC2CCCCC2)c(Br)c1,-12.4%
Cc1ccc(NC(=O)/C=C/c2ccco2)nc1,-9.1%
O=C(/C=C/c1ccco1)OCC(=O)c1ccc(OC(F)F)cc1,6.1%

(continued)
compound,VDR inhibitor
COCCCNC(=O)/C(C#N)=C/c1c(N2CCN(c3ccccc3)CC2)nc2ccccn2c1=O,-11.0%
COc1ccc(S(=O)(=O)N2CCOCC2)cc1NC(=O)CSc1nnc(N)s1,1.5%
C=CCNc1nc(C(=O)OCC(=O)NCc2ccccc2OC)cs1,2.7%
COCCNC(=O)c1cn(C)c2ccc(S(=O)(=O)N3CCCC3)cc2c1=O,-15.4%
CC1CCc2sc(C(=O)NC3CCN(Cc4ccccc4)CC3)cc2C1 (configuration not stated),-1.6%
COc1cccc(Oc2c(C)oc3c(CN4CCCCC4)c(O)ccc3c2=O)c1,3.0%
Cn1cnc([N+](=O)[O-])c1S(=O)(=O)Oc1cccc2ccccc12,u
COc1ccc(C(=O)NCCCCNC(=O)c2ccc(OC)c(OC)c2)cc1OC,12.4%
CCCCC[C@H](O)/C=C\[C@@H]1[C@H](O)CC(=O)[C@@H]1CCCCCCC(=O)O,u
O=C(Cc1ncc(C(F)(F)F)cc1Cl)NCCc1ccccn1,-21.0%
Cc1ccc(CNCCCn2cnc3c(OCc4ccccc4)ncnc32)o1,-10.0%
O=C1Oc2ccccc2C(=O)C1C(CC(O)c1ccc(-c2ccc(Br)cc2)cc1)c1ccccc1 (configuration not stated),31.6µM*
CCCC(=O)C1=C(O)C(C(=O)OC)C(C)(C)CC1=NCc1ccccc1 (configuration not stated),-1.4%
Cc1cccc(-n2ncc3c2CCCC3NC(=O)CCc2ccncc2)c1C (configuration not stated),-14.0%
CCNC(=S)NC(=NCc1cccnc1)Nc1nc(C)cc(C)n1,-14.5%
CC(C)c1ccc(C=NNc2ccc([N+](=O)[O-])cn2)cc1,-4.7%
COCCNC(=O)C1CCN(C(=O)c2cc3sccc3n2Cc2ccc(F)cc2)CC1,13.9%
O=[N+]([O-])c1ccc(-n2nnnc2CN2CCCCC2)cc1,-1.0%
CC(C)C1(C)NC(c2ccc3c(c2)OCO3)=CC(c2ccccc2O)N1 (configuration not stated),-10.9%
COc1ccc(-c2cn3nc(N4CCCC(C(=O)Nc5cc(C)cc(C)c5)C4)sc3n2)cc1 (configuration not stated),6.2%
O=c1cc2oc3cc(O)c(O)cc3c(-c3ccccc3[N+](=O)[O-])c-2cc1O,-7.1%
O=[N+]([O-])c1cccc(CN2CCN(S(=O)(=O)Cc3ccccc3)CC2)c1,0.6%
CCC(C)[C@H](NS(=O)(=O)c1ccc(F)cc1Br)C(=O)OC (some centres not stated),-13.0%
CCN(CC(=O)NCc1cccs1)c1ccc(S(=O)(=O)N2CCOCC2)cn1,-7.2%

Sorted by heavy-atom count (highest first): three of the compounds above
compound,VDR inhibitor
COc1ccc(-c2cn3nc(N4CCCC(C(=O)Nc5cc(C)cc(C)c5)C4)sc3n2)cc1 (configuration not stated),6.2%
COCCNC(=O)C1CCN(C(=O)c2cc3sccc3n2Cc2ccc(F)cc2)CC1,13.9%
O=c1cc2oc3cc(O)c(O)cc3c(-c3ccccc3[N+](=O)[O-])c-2cc1O,-7.1%

(next part)
compound,VDR inhibitor
CCCCN(Cc1cc2cc(OC)ccc2[nH]c1=O)C(=O)c1ccccn1,-6.2%
Cc1c(Cl)cccc1-n1nc(C)c2c(C(=O)NCc3ccccc3)cc(C3CC3)nc21,15.3%
CC1CN(C(=O)Nc2ccc(C(=O)NCc3cccc(F)c3)cc2)c2ccccc2S1 (configuration not stated),4.8%
CCc1[nH]c(=O)c(C#N)c2c1COC(C)(C)C2,11.0%
CNC(=S)N/N=C/c1cc(Br)cc(Br)c1O,2.1%
Cc1cc(C(=O)CN2C(=O)NC3(CCCc4ccccc43)C2=O)c(C)n1C (configuration not stated),-6.3%
COc1ccc(S(=O)(=O)N(n2c(C)nnc2-n2nc(C)cc2C)S(=O)(=O)c2ccc(OC)cc2)cc1,1.3%
Cc1ccccc1CN(C)CCS(=O)(=O)c1cc(Cl)ccc1Cl,13.5%

The closing 4 entries of the section above come first, to join the parts.
compound,VDR inhibitor
CNC(=S)N/N=C/c1cc(Br)cc(Br)c1O,2.1%
Cc1cc(C(=O)CN2C(=O)NC3(CCCc4ccccc43)C2=O)c(C)n1C (configuration not stated),-6.3%
COc1ccc(S(=O)(=O)N(n2c(C)nnc2-n2nc(C)cc2C)S(=O)(=O)c2ccc(OC)cc2)cc1,1.3%
Cc1ccccc1CN(C)CCS(=O)(=O)c1cc(Cl)ccc1Cl,13.5%
Cn1cc(S(=O)(=O)N2CCN(c3ccc(F)cc3)CC2)c(=O)n(C)c1=O,6.1%
COc1cccc(Nc2ncc3nc(-c4ccccc4)c(=O)n(C)c3n2)c1,-13.1%
NC(=O)c1ccc(NC(=O)COc2coc(CN3CCc4ccccc4C3)cc2=O)cc1,-2.3%
COc1cccc(OCC(=O)NC2CCCCC2)c1,10.2%
COC(=O)c1ccc(-n2c(C)cc(C(=O)COC(=O)CC3Sc4ccccc4NC3=O)c2C)cc1 (configuration not stated),-18.9%
COc1cc(NC(=O)Cn2c(=O)cc(C)c3c(C)nn(-c4ccc(C)cc4)c32)cc(OC)c1,5.5%
O=C1c2ccccc2C(=O)c2[nH]cnc21,-12.9%
CCN(CC)S(=O)(=O)c1cccc(C(=O)N[C@H](C(=O)NCc2ccc(Cl)cc2)C(C)C)c1,-10.0%
CCN(CCCNC(=O)CN(C)S(=O)(=O)c1ccc2c(c1)CCC(=O)N2)c1cccc(C)c1,1.5%
C=CCc1cccc(CNc2c(C)cc(C)cc2C)c1O,4.7%
C/C(=N\N1CCN(Cc2ccc(Cl)cc2)CC1)c1ccc([N+](=O)[O-])cc1,-0.6%
c1ccc(CCn2nnnc2CN2CCc3ccccc32)cc1,-0.4%
CC1(C)Oc2ccc(C(=O)NC3CCCC3)cc2N(CC(=O)NC2CCCC2)C1=O,5.3%
O=C(CNS(=O)(=O)c1ccccc1)Nc1ccc2c(c1)OCO2,13.2%
CCC(=O)OC1(C(C)=O)CCC2C3CCC4=CC(=O)CCC4(C)C3CCC21C (configuration not stated),-26.5%
CCOc1ccccc1N(C(=O)c1ccco1)C(C(=O)NC1CCCC1)c1cccnc1 (configuration not stated),-7.2%
Cc1ccc(Cn2c(=N)c(C(=O)NCCN3CCOCC3)cc3c(=O)n4ccccc4nc32)cc1,11.0%
CC(C)(CO)NCc1ccc(Br)cc1,28.2µM*
CC(OC(=O)CCN=C1NS(=O)(=O)c2ccccc21)C(=O)Nc1ccc(F)c(F)c1F (configuration not stated),-9.7%
Cc1ccn2cc(-c3ccc(O)c(O)c3)nc2c1,-6.5%
CCCCSC(=S)NC1CCS(=O)(=O)C1 (configuration not stated),-8.5%
COc1ccc(OC)c(S(=O)(=O)n2nnc3ccccc32)c1,13.1%
Cc1ccc(C)[n+](CC(=O)N2CCCCC2)c1,5.3%
Cc1cc(NC(=O)CCC(=O)N(CC(=O)NC2CCCC2)c2ccc(F)c(Cl)c2)no1,-15.8%
COc1cccc(Cn2c(=O)c(-c3cccs3)nc3cnc(OC)nc32)c1,-8.4%
CCN(CC)CC(=O)c1ccc(-c2ccccc2)cc1,39.8µM*
CC1CCN(CCCNC(=O)c2cc3c(s2)-c2ccccc2OC3)CC1,6.5%

From PubChem BioAssay
